PrP UTR inh: inhibition of PrP 5' UTR reporter expression. cell-based PrP 5' UTR mRNA reporter, plate reader. inhibition, % (test concentration not listed). hit rate 0.35% among 340,000. AID 488862;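 active = every replicate at 50% or more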;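 note: 0 = median of the neutral control wells; tested in H4 reporter cells; numbers are from one replicate; inactives centre near -14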
Mtb hypoxia rep: reduces hypoxia-regulated biosensor signal in M. tuberculosis | hit rate 0.1% among 300,000 | AID 1159583 | M. tuberculosis hypoxia-regulated fluorescent reporter, fluorescence | fluorescence inhibition, % (test concentration not listed);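 active = 35 to 45% if threefold the growth effect, above 45% if 1.5-fold the growth effect; inactive = the rest, general growth blockers included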;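 note: wells of about 50 µL received 100 nL stock; 0% = vehicle wells and 100% = reference inhibitor wells; whole bacteria with a GFP reporter of the hypoxia response; strong numbers were not always called active; many hits fall short of the cut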
Bead autofluor: flagged as autofluorescent in microsphere protease counterscreen | compound autofluorescence counterscreen, microsphere flow cytometry; hits give high values | fluorescence intensity (concentration not given with the values) | hit rate 3.1% among 360,000 | AID 624483;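 active = at least 3 SD above the mean of all compounds, about 16000 in these data; inconclusive = too few beads counted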;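 note: 100 nL of 1 mM stock went into each well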
Sa ugtP lethal: kills S. aureus RN4220 lacking UgtP. S. aureus RN4220 ugtP deletion, OD600 growth, 16 h; some inactives read as strong as hits. growth inhibition, % (concentration not given with the values). hit rate 0.54% among 330,000. AID 1259309;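 active = z-score under -3 and OD600 up to 0.15 on both plates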;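 note: plate controls were untreated wells for no effect and antibiotic for full effect; wells of about 80 µL received 100 nL stock; the first replicate is given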
BJeLR viability: BJeLR cell viability loss; BJeLR (HRASV12) viability, CellTiter-Glo ATP luminescence, 48 h; reference of the scale not given here; inhibition, % (test concentration not listed); hit rate 0.17% among 300,000; AID 1554;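 active = replicate mean above 50%; inconclusive = above 50% but judged a plate artefact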;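 note: 50 nL library stock added to about 25 µL; numbers are from one replicate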
RN4220 kill: kills Staphylococcus aureus RN4220; S. aureus RN4220 growth, OD600, 16 h; inhibition, % (no concentration beside the values); hit rate 0.33% among 330,000; AID 1259311;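 active = z-score of -3 or lower and OD600 up to 0.18 on both plates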;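 note: plate controls were untreated cells for no effect and reference antibiotic for full effect; stock transfer was 100 nL into about 80 µL; one replicate is shown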
Mtb hypoxia rep growth: also measured in Mtb hypoxia rep; calls as there; growth inhibition, %; measured here: M. tuberculosis growth (absorbance);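 0% = vehicle and 100% = reference antibiotic; read after six days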
Active calls of the source: *; ? = inconclusive; / = no result given.

Below each SMILES: PrP UTR inh, Mtb hypoxia rep, Mtb hypoxia rep growth, Bead autofluor, Sa ugtP lethal, BJeLR viability, RN4220 kill
O=C(NCCCN1CCOCC1)c1cc(C(=O)C2CC2)c[nH]1
    -30, 6, 6, 5681, -8, 3, 9.5
CN(C)c1ccc(Cl)cc1N
    -2, 2, -1, 3179, 1, -1, -0.6
O=C(CCN1C(=O)[C@@H]2Cc3ccccc3CN2C1=O)NCCc1ccccc1
    -16, -8, -3, 5526, 0, 12, 3.6
CC(=O)Nc1ccc(S(=O)(=O)N2CCSC2c2ccccc2Cl)cc1 (stereo unspecified)
    -14, 9, 16, 4924, -26, -8, 10
O=[N+]([O-])c1ccc(COc2ccc(-c3[nH]ncc3-c3ccc(Cl)cc3)c(O)c2)cc1
    -16, 4, -1, 1931, 40, 9, 81
CCOC(=O)CN1C(=O)C(CC)Oc2ccc(Cl)cc21 (stereo unspecified)
    -10, 8, 1, 21455*, 6, 0, 2.4
COc1cccc(/C=N/NC(=O)c2[nH]nc3c2CCc2ccccc2-3)c1O
    7, /, /, 2442, /, 26, /
Cc1ccc2c(c1)C1C(CO2)C(c2ccccc2)[C@]2(C)C(=O)Nc3ccc(Br)cc3C(=O)N12 (stereo partly specified)
    /, 2, 7, /, -8, /, -13
CCOC(=O)CC(NC(=O)Cn1nnc(-c2ccccc2)n1)c1ccc(OC)cc1 (stereo unspecified)
    -53, 4, 9, 4374, 15, -8, 5.6
O=C(c1ccccc1Cl)N1CCSCC1
    -7, 8, 12, /, 11, 4, 4.1
Nc1ncnc(Sc2ccc(Cl)cc2)c1[N+](=O)[O-]
    -5, 3, 6, 2088, 5, -4, -1.7
N#C/C(=N\Nc1ccccc1)C(=N)N1CCCCCC1
    -49, /, /, 4181, /, -3, /
CNC(=O)c1cc2c(=O)n3cc(C)ccc3nc2n(C(C)C)c1=N
    -14, 2, 5, 3715, 9, 7, 0.1
Cc1ccc(N2CN(CCC3=CCCCC3)CNC2=S)cc1
    -24, 8, 11, 3996, 9, -10, 1.3
NC(=O)c1ccc(C(=O)N/N=C/c2cccc(Oc3ccccc3)c2)cc1
    2, /, /, 5877, /, 5, /
CCOC(=O)c1ccn(-c2nc(-c3ccco3)cc(C(F)(F)F)n2)n1
    5, 4, 5, 5616, 0, 1, -3.6
O=C(Cn1nnc(-c2ccccc2Cl)n1)N1CCCCC1
    -59, 1, 2, 3493, 1, -3, 5.9
COc1ccc(/C(CC2OC(=O)c3ccccc32)=N\NC(N)=O)cc1 (stereo unspecified)
    -13, /, /, 2648, /, 3, /
O=C1C2C3CC(C(Br)C3Br)C2C(=O)N1CC1CCCO1 (stereo unspecified)
    -19, 18, 2, 4187, 8, -3, 6.4
C=CCOC(=O)C1=C(C)OC(N)=C(C#N)C1c1ccccc1F (stereo unspecified)
    -1, /, /, 2129, 6, 1, 3.9
COc1ccc(OC)c(NS(=O)(=O)c2ccc(NC(=O)c3ccc(NS(C)(=O)=O)cc3)cc2)c1
    -10, /, /, 2144, /, -6, /
CNC(=S)Nc1ccccc1-c1ccccc1
    -7, 1, 4, 2008, 1, -7, 1.1
COc1cccc(-c2cc(C(=O)NCCc3ccccc3)no2)c1
    -122, 1, 6, 21462*, 5, -15, 0.9
CCCCNC1CCS(=O)(=O)C1 (stereo unspecified)
    -9, 6, 8, 8206, 1, 2, 5.6
O=C(Oc1ccc(-n2cnnn2)cc1)c1ccccc1
    -35, 2, -1, 2627, 4, -10, 8.3
COc1cccc2sc(N3CCN(C(=O)c4cccs4)CC3)nc12
    -12, 8, 2, /, -5, 1, 1.0
O=C(NCc1ccco1)c1cc2ccccc2c(=O)o1
    -67, 14, 7, 2916, -10, -10, 8.1
CCN(CC)S(=O)(=O)c1ccc(N2CCN(C)CC2)c(NC(=O)c2cc(=O)c3ccccc3o2)c1
    12, 7, 7, 6102, 3, 8, 21
O=C1N(CN2CCN(Cc3ccccc3)CC2)c2ccccc2C12OCCCO2
    -4, -9, 10, 4344, -1, -8, -1.9
O=C(Nc1ccc2c(c1)OCO2)c1nn(-c2ccccc2)c(=O)c2ccccc12
    5, -8, -1, 3897, -6, 9, 0.2
C#Cc1ccc([C@H]2C=C(C(=O)NCc3ccccc3)O[C@@H](OCc3ccc(CO)cc3)C2)cc1
    -27, /, /, 4051, /, -5, /
CCOC(=O)CC(=O)CSc1nc(C)nc2c1oc1ccccc12
    -14, 1, 2, 3345, 2, -8, 20
Cc1onc(-c2ccccc2Cl)c1C(=O)NC(=S)NCCc1ccccc1
    -13, 9, 1, 2053, 18, -3, 0.6
CCC(C)NC(=O)c1ccccc1NC(=O)C1COc2ccccc2O1 (stereo unspecified)
    -19, 3, 5, 2626, -7, 2, 1.0
CC(=O)Nc1ccc(OCc2nnc(-c3ccc(Cl)cc3)o2)cc1
    -17, -5, 12, 4612, -3, 3, 7.9
Cn1nnc2cc(C(=O)N3CCCCCC3)ccc21
    -13, 16, 8, 8813, -4, -6, 7.5
Cc1ccc2nc(C)cc(C(=O)N3CCCC(N4CCN(c5ccccc5C)CC4)C3)c2c1 (stereo unspecified)
    -16, -3, 9, 5935, 3, -7, 2.0
COc1cccc(CNC(=O)C2(C)Oc3ccccc3NC2=O)c1 (stereo unspecified)
    -7, /, /, 2801, 3, -1, 0.4
CN1CCN(c2ccc(S(=O)(=O)N3CCOCC3)cc2NC(=O)CCc2ccccc2)CC1
    3, 12, 4, 3997, -2, 7, 1.6
COc1cc(OC)cc(C(=O)NNC(=O)NC2CCCCC2)c1
    -8, 2, 6, 3694, 1, 3, 1.1

3 compounds drawn at random from the list so far:
Below each SMILES: PrP UTR inh, Mtb hypoxia rep, Mtb hypoxia rep growth, Bead autofluor, Sa ugtP lethal, BJeLR viability, RN4220 kill
COc1cc(OC)cc(C(=O)NNC(=O)NC2CCCCC2)c1
    -8, 2, 6, 3694, 1, 3, 1.1
CC(=O)Nc1ccc(OCc2nnc(-c3ccc(Cl)cc3)o2)cc1
    -17, -5, 12, 4612, -3, 3, 7.9
Cc1onc(-c2ccccc2Cl)c1C(=O)NC(=S)NCCc1ccccc1
    -13, 9, 1, 2053, 18, -3, 0.6

Continuation.
Below each SMILES: PrP UTR inh, Mtb hypoxia rep, Mtb hypoxia rep growth, Bead autofluor, Sa ugtP lethal, BJeLR viability, RN4220 kill
O=C(NCC1CCN(c2ccc(S(=O)(=O)N3CCOCC3)cc2)CC1)c1ccc(Cl)cc1
    -22, -2, 13, 3188, -8, 6, -13
CC(=O)c1ccccc1NC(=O)c1ccc(N2CCCC2=O)cc1
    -38, -7, 9, ?, -1, -2, 1.5
COc1ccc(N2CCN(C(=O)c3ccc4c(=O)n5c(nc4c3)CCCCC5)CC2)cc1
    -4, 2, 12, 5283, -7, 2, -14
Cc1cccc(C(=O)NC2CC3CCC(C2)N3C)c1 (stereo unspecified)
    -12, -4, -1, /, 0, /, -2.0
COc1ccc(C=CC(=O)Nc2cc(S(=O)(=O)N3CCCCC3)ccc2N2CCCCC2)cc1OC
    /, 9, 5, /, -7, /, 8.7
CCc1nnc(NC(=O)C2CSC3(C)CCC(=O)N23)s1 (stereo unspecified)
    -9, 2, -1, 6420, 1, 4, 1.7
CN(C)S(=O)(=O)c1ccc(C(O)=C2C(=O)C(=O)N(Cc3cccnc3)C2c2ccco2)cc1 (stereo unspecified)
    /, 8, 5, /, 1, /, 11
O=C(NNC(=O)c1oc2ccccc2c1-n1cccc1)c1ccco1
    -7, 4, 2, 3911, 0, 4, 10
CN(CC(=O)Nc1ccc(F)c(F)c1F)C(=O)C1CCN(C(=O)Nc2ccccc2)CC1
    -3, 7, -5, 4626, 8, 7, 3.1
COc1ccc(NC(=O)c2cccc(S(=O)(=O)N(C)c3ccccc3)c2)cn1
    -8, -1, -5, 2575, 2, -22, 2.8
COc1ccc(C2C(C(C)=O)=C(O)C(=O)N2c2cccnc2)c(OC)c1 (stereo unspecified)
    6, 19, 37, 16553*, -1, -2, -0.6
O=C(O)c1ccc(CNC(=O)C2CCCN2C(=O)OCc2ccccc2)cc1 (stereo unspecified)
    4, 5, -4, 4024, 2, -7, 0.6
CN(N=Cc1ccccc1Cl)c1ncc(Cl)cc1C(F)(F)F
    /, 5, -8, /, 85*, /, -5.0
COc1cccc(COC(=O)CSCC(=O)Nc2cccc(C)c2)c1OC
    -14, 11, -1, /, 14, 7, 4.2
O=C(Nc1ccncc1)c1cc2ccccc2o1
    -37, /, /, 5071, 8, /, -2.4
Cc1ccc(S(=O)(=O)C2CCCCC2=O)cc1 (stereo unspecified)
    -9, -6, 0, 2227, 12, -1, 7.1
O=C(c1cc2nc(-c3cccs3)cc(C(F)(F)F)n2n1)N1CCCc2ccccc21
    -71, /, /, 3216, -8, 6, 4.1
O=C(N/N=C/c1cccnc1)c1ccccc1Cl
    -16, /, /, 3241, /, 3, /
CC(C)(CNC(=O)CCC1CCCC1)CNC(=O)CCC1CCCC1
    2, 8, -5, 6062, 1, 0, -0.5
O=C(c1ccccc1Br)N1CCC(c2nc3ccccc3s2)CC1
    -22, 15, 12, 3183, 7, /, 3.4
CCOc1ccc(Cl)cc1C=NNC(N)=O
    /, -11, -2, /, 7, /, 6.1
O=C(c1ccccc1)N1CCC(c2nc(-c3ccc(S(=O)(=O)N4CCOCC4)cc3)no2)CC1
    -55, /, /, 3260, /, 0, /
O=C(Cc1ccccc1[N+](=O)[O-])N1CCN(S(=O)(=O)c2ccccc2)CC1
    -1, 5, 4, 5927, -3, -16, 1.4
CSc1nc2ccc(S(=O)(=O)N3CCc4ccccc43)cc2s1
    -35, 3, 12, 11873, 1, 13, 2.7
O=C(O)c1cccc(-n2nc(-c3ccc(Cl)c([N+](=O)[O-])c3)c3ccccc3c2=O)c1
    -12, /, /, 5657, /, 6, /
CCC(C)NC(=O)[C@@H]1CSC2c3ccccc3C(=O)N21 (stereo partly specified)
    -4, 16, 8, 3839, 8, -3, 7.1
O=C(NCCN1CCCCC1)Nc1ccc(Br)cc1
    -24, 9, 5, 3565, 6, 6, -1.6
O=C(O)c1cccnc1NC1CCCC1
    -17, -2, -2, 6996, -2, 3, -3.5
O=C(NC1CCCCCCC1)c1cccc(S(=O)(=O)N2CCOCC2)c1
    -14, 1, 1, 5167, 3, /, 1.4
Cc1c(-c2ccc(Cl)cc2)oc(=O)c2c(N)n(-c3ccccc3)nc12
    -43, /, /, 5094, /, 7, /
O=C1NCCCC1C(=O)N1CCN(C(c2ccccc2)c2ccccc2)CC1 (stereo unspecified)
    -17, 2, 4, 6149, 0, -1, -0.3
CCN1/C(=C/c2ccc3cc(C)ccc3[n+]2CC)Sc2cc(C)ccc21
    24, /, /, 7083, 100*, /, 100*
c1ccc(CCNc2nc3ccccc3n3nnnc23)cc1
    -11, /, /, 2728, 1, -8, 3.1
CCCn1c(CCC(=O)O)ccc1-c1ccc(F)cc1
    -24, 7, 4, 9420, 11, 10, 1.4
Cc1cc(Cl)ccc1C(=O)C1CCCN(C(=O)/C=C/c2cnn(C)c2)C1 (stereo unspecified)
    -37, 11, 11, 4263, 8, -6, 5.4
O=C(Nc1ccc(Cl)cn1)Nc1ccccc1Cl
    -16, -24, -15, 2488, -11, -13, 2.1
COc1ccc(C2Nc3cccc4cccc(c34)N2)cc1
    -22, 8, 2, 2309, -29, 11, -3.9
CCc1nn(CC(=O)NCCC2=CCCCC2)c(=O)c2cc3cc(F)ccc3n12
    5, 5, -1, 5414, -7, 9, 2.6
O=S(=O)(c1ccc(SCc2ccc(Br)cc2)nc1)N1CCOCC1
    -9, 1, 5, ?, 9, /, 2.1
Cc1nc2ccc(Br)cn2c(=O)c1Cl
    -17, -2, 3, 3929, -6, 2, 1.7
O=C(O)COc1ccc(/C=N/Nc2nc(Nc3ccccc3)nc(N3CCCCC3)n2)cc1
    -16, /, /, 2165, /, 3, /
CCOc1cccc2c1OC1(C)CC2NC(=O)N1c1cccc(C(=O)N2CCN(c3ccccn3)CC2)c1 (stereo unspecified)
    -3, 6, 10, 5417, -1, -9, 0.1
O=C(NN=Cc1ccc(OCc2ccccc2)cc1)c1cccs1
    /, 14, 9, /, 0, /, 8.0
COC(=O)c1ccccc1NC(=O)c1ccccc1OC
    2, /, /, 4765, -1, 1, 5.6
COc1ccc(C2CC(=O)Oc3c(C(CCN4CCOCC4)c4cc(OC)c(OC)c(OC)c4)c(OC)cc(OC)c32)cc1 (stereo unspecified)
    -19, 3, 14, 3718, 0, 4, -0.3
CCn1nc(C(=O)Nc2ccc3nc(C)sc3c2)c2ccccc2c1=O
    -4, 6, 3, 2022, -6, -5, 16
CCOC(=O)Cn1c(C)c(C#N)c2ccccc21
    -12, 15, 3, 4325, 1, -3, 4.5

Assay outcomes deposited in PubChem by several laboratories.
